Assay outcomes (PubChem)
Hsc70 – Hsc70 inhibitors, probe displacement, primary screen, biochemical, fluorescence polarization (AID 568) | displacement, % at 20 µM, or IC50 in µM where a hit was titrated | 83,000 tested, under 10 active | Hsc70 fluorescence polarization, probe displacement; higher % means a stronger effect; strong numbers were not always called active;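 active = displacement above 50% without optical interference and an IC50 on retest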;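 note: ATPase domain with a fluorescein-tagged ATP probe; 0% = vehicle and 100% = excess ADP; read after one hour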
WNV protease inh – inhibitors of West Nile virus NS2B-NS3 protease. P06935. WNV NS2B-NS3 protease, fluorogenic substrate Ex360/Em465; hits give low values. z-score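 (tested at a level between 10 and 100 µM)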. 65,000 tested, 0.18% active. AID 577;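 active = z-score at -3 or under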;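 note: score is relative to mean and spread of the compound wells of a plate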
Target sequence (P06935 1371-1501 limits assumed): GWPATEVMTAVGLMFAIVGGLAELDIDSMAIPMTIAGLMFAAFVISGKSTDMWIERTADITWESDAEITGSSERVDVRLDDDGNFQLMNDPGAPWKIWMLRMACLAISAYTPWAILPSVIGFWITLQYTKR
Target sequence (P06935 1502-1679 limits assumed): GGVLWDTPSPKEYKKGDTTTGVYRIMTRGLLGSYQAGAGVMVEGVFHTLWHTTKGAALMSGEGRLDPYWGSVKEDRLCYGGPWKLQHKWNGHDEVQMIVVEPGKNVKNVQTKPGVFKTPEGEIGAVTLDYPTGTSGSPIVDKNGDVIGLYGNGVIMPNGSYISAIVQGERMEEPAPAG
MT1-MMP promoter – MT1-MMP gene expression reporter suppression – cell-based, luciferase reporter, luminescence (AID 618). MT1-MMP promoter luciferase reporter cells, luminescence. calls from a first round at 10 µM; hits with a dose series show EC50 in µM. 87,000 tested, 0.62% active;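 active = over half of the reporter light lost at 10 µM or EC50 under 50 µM; inactive = the rest and hits that failed the dose series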;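 note: actives suppress MT1-MMP promoter-driven transcription so potencies describe inhibitors; HT1080 fibrosarcoma cells; overnight exposure; toxic or luciferase-blocking compounds were not removed from the actives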
* hit, by the source's call; i = inactive; x = no result given. The list is partial; count on the stated rates, not on these rows.

Preview, 20 compounds:
Results follow in this order: Hsc70	WNV protease inh	MT1-MMP promoter
> CN1CCC(N2CC3CC(C2)c2cccc(=O)n2C3)CC1 (stereo not drawn)
 : 1.3%	0.92	i
> O=C1NC(=O)C2(Cc3ccccc3N3CCCC32)C(=O)N1c1cccc(Cl)c1 (stereo not drawn)
 : -1.2%	-0.99	i
> CCCC(C)n1[nH]c(=O)c2c1NC(=O)CSC2c1ccc(OC)cc1 (stereo not drawn)
 : 1.6%	x	i
> COC(=O)c1ccc(-n2c(C)nc3ccccc3c2=O)cc1
 : -0.2%	x	i
> COc1cc(/C=N/NP(=S)(c2ccccc2)c2ccccc2)ccc1O
 : 1.6%	x	i
> CN1C(=O)C(Cc2cccs2)C(=O)N(C)C1=O
 : -2.6%	-0.94	i
> COC(=O)C(O)(c1ccc(N(C)C(=O)OC(C)C)cc1)C(F)(F)F (stereo not drawn)
 : -1.5%	x	i
> Oc1ccc(Br)cc1CN1CCN(c2ccccc2)CC1
 : -2.9%	-0.73	i
> CCOC(=O)N(CC)c1ccc(C(O)(C(=O)OCC)C(F)(F)F)cc1 (stereo not drawn)
 : 3.0%	1.19	i
> O=c1[nH]c(=O)n(Cc2ccco2)c(O)c1C=NCCN1CCOCC1
 : -17.2%	-0.15	i
> CN(CC(=O)Nc1ccccc1-c1ccccc1)C1CCCCC1
 : -3.2%	x	i
> CC(=O)Nc1ccccc1OP1(=O)COc2ccccc2OC1
 : -3.8%	-0.56	i
> CS(=O)(=O)N1CCCC(C(=O)N2CCC3(CC2)OCCO3)C1 (stereo not drawn)
 : -2.9%	1.76	i
> O=C(C1CC(=O)N(C2CCCCCCC2)C1)N1CCC2(CC1)OCCO2 (stereo not drawn)
 : -1.2%	x	i
> CCc1c(C)nc(N)nc1N1N=C1SCC(N)=O
 : -2.2%	x	i
> CCCCCCn1c(O)c(C=Nc2c(C)n(C)n(-c3ccccc3)c2=O)c(=O)[nH]c1=O
 : -4.5%	0.08	i
> CCC(=NCCc1ccccc1)c1c(O)n(C2CCCCC2)c(=O)[nH]c1=O
 : 4.6%	x	i
> COC(=O)N(c1ccccc1)P1(=S)OCCO1
 : -1.9%	0.13	i
> CC1=CC(=C2C(=O)NC(=O)NC2=O)C=C(C(F)(F)F)N1C(C)C
 : -2.2%	-0.06	i
> O=C(Cc1ccccc1)N1CCN(Cc2ccccn2)CC1
 : -0.2%	0.7	i

All compounds of this part, from the first entry:
Results follow in this order: Hsc70	WNV protease inh	MT1-MMP promoter
> CN1CCC(N2CC3CC(C2)c2cccc(=O)n2C3)CC1 (stereo not drawn)
 : 1.3%	0.92	i
> O=C1NC(=O)C2(Cc3ccccc3N3CCCC32)C(=O)N1c1cccc(Cl)c1 (stereo not drawn)
 : -1.2%	-0.99	i
> CCCC(C)n1[nH]c(=O)c2c1NC(=O)CSC2c1ccc(OC)cc1 (stereo not drawn)
 : 1.6%	x	i
> COC(=O)c1ccc(-n2c(C)nc3ccccc3c2=O)cc1
 : -0.2%	x	i
> COc1cc(/C=N/NP(=S)(c2ccccc2)c2ccccc2)ccc1O
 : 1.6%	x	i
> CN1C(=O)C(Cc2cccs2)C(=O)N(C)C1=O
 : -2.6%	-0.94	i
> COC(=O)C(O)(c1ccc(N(C)C(=O)OC(C)C)cc1)C(F)(F)F (stereo not drawn)
 : -1.5%	x	i
> Oc1ccc(Br)cc1CN1CCN(c2ccccc2)CC1
 : -2.9%	-0.73	i
> CCOC(=O)N(CC)c1ccc(C(O)(C(=O)OCC)C(F)(F)F)cc1 (stereo not drawn)
 : 3.0%	1.19	i
> O=c1[nH]c(=O)n(Cc2ccco2)c(O)c1C=NCCN1CCOCC1
 : -17.2%	-0.15	i
> CN(CC(=O)Nc1ccccc1-c1ccccc1)C1CCCCC1
 : -3.2%	x	i
> CC(=O)Nc1ccccc1OP1(=O)COc2ccccc2OC1
 : -3.8%	-0.56	i
> CS(=O)(=O)N1CCCC(C(=O)N2CCC3(CC2)OCCO3)C1 (stereo not drawn)
 : -2.9%	1.76	i
> O=C(C1CC(=O)N(C2CCCCCCC2)C1)N1CCC2(CC1)OCCO2 (stereo not drawn)
 : -1.2%	x	i
> CCc1c(C)nc(N)nc1N1N=C1SCC(N)=O
 : -2.2%	x	i
> CCCCCCn1c(O)c(C=Nc2c(C)n(C)n(-c3ccccc3)c2=O)c(=O)[nH]c1=O
 : -4.5%	0.08	i
> CCC(=NCCc1ccccc1)c1c(O)n(C2CCCCC2)c(=O)[nH]c1=O
 : 4.6%	x	i
> COC(=O)N(c1ccccc1)P1(=S)OCCO1
 : -1.9%	0.13	i
> CC1=CC(=C2C(=O)NC(=O)NC2=O)C=C(C(F)(F)F)N1C(C)C
 : -2.2%	-0.06	i
> O=C(Cc1ccccc1)N1CCN(Cc2ccccn2)CC1
 : -0.2%	0.7	i
> COc1ccc(C2SCC(=O)Nc3c2c(C)nn3-c2ccccc2)cc1 (stereo not drawn)
 : 2.7%	x	i
> CCN1CCN(C(=O)COc2cc(=O)n(CC)c3ccccc23)CC1
 : 4.3%	0.61	i
> CCC(=NCC1CCCO1)c1c(O)n(Cc2ccccc2)c(=O)[nH]c1=O (stereo not drawn)
 : -5.0%	-0.64	i
> O=C(C1CC(=O)N(c2ccc(F)c(Cl)c2)C1)N1CCC2(CC1)OCCO2 (stereo not drawn)
 : -0.1%	0.69	i
> CCCCn1c(=O)c(C(=O)Nc2nc3ccccc3[nH]2)c(O)c2ccccc21
 : -5.2%	-0.5	i
> O=C1CN(C(=O)CN2CCCCC2)C(c2ccccc2)c2cc(Br)ccc2N1 (stereo not drawn)
 : -2.3%	-0.9	i
> COc1ccc(C(CC(=O)N2CCC3(CC2)OCCO3)NS(=O)(=O)c2ccc(F)cc2)cc1 (stereo not drawn)
 : -5.7%	0.7	i
> O=C(c1cccs1)N1C2CCC1CC(O)(c1cccnc1)C2 (stereo not drawn)
 : 0.0%	-0.35	i
> CCC(=O)N1CC(=O)Nc2ccc(F)cc2C1c1ccccc1 (stereo not drawn)
 : -0.1%	0.3	i
> COc1ccc(CCNC(=O)c2c(N)n(CCN3CCOCC3)c3nc4ccccc4nc23)cc1
 : -3.3%	-0.13	i
> C[C@@]1(CO)[C@H](O)CC[C@@]2(C)[C@H]1CC[C@H]1C[C@@H]3C[C@@]12CC[C@]3(O)CO
 : -1.9%	-0.02	i
> CC(c1ccccc1F)n1cc(C(=O)Nc2ccc3nc[nH]c3c2)nn1 (stereo not drawn)
 : 0.8%	1.37	i
> C=CCn1c(O)c(C(CC)=Nc2cc(OC)ccc2OC)c(=O)[nH]c1=O
 : 0.3%	-0.08	i
> O=C1NC(=O)C(=Cc2cn(CCOc3ccc4c(c3)OCO4)c3ccccc23)C(=O)N1
 : -60.9%	x	i
> CC(C)CC12CN3CCN(CC(C3)/C1=N/O)C2
 : -2.2%	0.96	i
> Cc1ccccc1C1=NCC(=S)Nc2ccc(Cl)cc21
 : 0.2%	x	i
> Nc1ccc(C2(c3ccc(N)cc3)CN3CCC2CC3)cc1
 : -1.1%	0.53	i
> c1ccc(C(OCCN2CCNCC2)c2ccccc2)cc1
 : -4.9%	-0.27	i
> COC(=NC1CCCCC1)C(O)c1c[nH]c2ccccc12 (stereo not drawn)
 : 0.3%	x	i
> CCOC(=O)C1(c2ccccc2)CCN(Cc2cccc(C(=O)O)c2)CC1
 : 1.0%	-0.18	i
> CCCCCCn1c(O)c(C(C)=NC)c(=O)[nH]c1=O
 : -4.3%	0.35	i
> O=C1NC(=O)[C@]2(Cc3ccccc3N3CCN(c4ccccc4)CC32)C(=O)N1c1ccccc1 (stereo partly drawn)
 : 3.8%	0.11	i
> CCOc1ccccc1N1C(=O)NC(=O)C(CCc2ccncc2)(CCc2ccncc2)C1=O
 : 4.7%	x	i
> COC(=O)C(O)(c1ccc(N(C)S(=O)(=O)c2ccccc2)cc1)C(F)(F)F (stereo not drawn)
 : -2.0%	-0.98	i
> CC(N)Cc1c[nH]c2ccc(Cl)cc12 (stereo not drawn)
 : 1.3%	x	i
> COC(=O)c1c(C)n(Cc2ccc3c(c2)OCO3)c2ccc(O)cc12
 : 0.9%	-0.2	i
> O=C(c1ccccc1)c1cn(CC(=O)N2CCCc3ccccc32)c2ccccc12
 : -0.8%	x	i
> COC(=O)C1=C(N)OC(C)=C(C(C)=O)C12C(=O)N(C)c1ccccc12 (stereo not drawn)
 : -3.2%	0.16	i
> Cc1cc(Cl)ccc1OCC(=O)O
 : 1.4%	-0.72	i
> O=P(c1ccccc1)(c1nc2ccccc2s1)N1CCOCC1 (stereo not drawn)
 : -3.3%	x	i
> CN(C)CCOC(=O)c1cn(Cc2ccccc2)c2ccccc12
 : 1.0%	0.53	i
> Cn1c(=O)cc(SCC(=O)N2CCC3(CC2)OCCO3)c2ccccc21
 : 4.7%	1.12	i
> Cc1ccc(-n2c(O)c(C=NCc3cccnc3)c(=O)[nH]c2=O)cc1C
 : -3.2%	-1.1	i
> CCOC(C(=O)OCC(O)CN(CC)CC)(c1ccccc1)c1ccccc1 (stereo not drawn)
 : -2.0%	0.06	i
> CCN1CCN(C(=O)Cc2coc3cc(C)cc(C)c23)CC1
 : -3.0%	-0.47	i
> CCN(N=Nc1nonc1OC)c1nonc1OC
 : -5.3%	x	i
> CCOC(=O)c1c(C)c(P(=S)(N2CCOCC2)N2CCOCC2)n(C)c1C
 : 1.6%	-0.06	i
> O=C(CN1CCOCC1)NCC(=O)Nc1ccc(Br)cc1C(=O)c1ccccc1
 : -2.4%	x	i
> CCOc1ccc(-n2c(O)c(C=Nc3ccc(N(CC)CC)cc3)c(=O)[nH]c2=O)cc1
 : 39.1%	0.28	i
> Clc1ccc2c(c1)C(c1ccccc1Cl)=NCc1nnc(Br)n1-2
 : -0.2%	x	i

(more compounds)
Results follow in this order: Hsc70	WNV protease inh	MT1-MMP promoter
> CC(C)CC1C(C#N)=C(N)Oc2c1c(=O)oc1ccccc21 (stereo not drawn)
 : 6.6%	-0.5	i
> CCC(=O)Nc1cc(C(=O)N2CCC3(CC2)OCCO3)ccc1S(=O)(=O)c1ccc(C)cc1
 : -4.4%	0.75	i
> CCOC(=O)c1ccc(NC(=O)c2c(O)[nH]c(=O)[nH]c2=O)cc1
 : 98.4%	-1.48	i
> Fc1ccccc1N1CCN(Cc2c(F)cccc2F)CC1
 : -0.1%	-0.88	i
> Cn1cc(CCC(=O)N2CCC3(CC2)OCCO3)c2ccccc21
 : -1.5%	1.42	i
> CC1CN(O)C2CCc3c(no[n+]3[O-])C12O (stereo not drawn)
 : -3.4%	x	i
> CC(=O)NC(Cc1ccc(N(CCCl)CCCl)cc1)C(=O)O (stereo not drawn)
 : 7.0%	x	i
> CCCC(=O)OCC[N+](C)(C)C
 : 2.0%	0.89	i
> COc1ccc(CC(=O)N2CCN(C)CC2)cc1OC
 : 4.5%	x	i
> CCC(NC(=O)OC(C)(C)C)C(=O)Oc1cc(C)cc2oc(=O)c3c(c12)CCC3 (stereo not drawn)
 : 0.5%	x	i
> CN1CCN(c2c[nH]c(=O)[nH]c2=O)CC1
 : 5.2%	0.00195	i
> CCCCn1c(O)c(C(CC)=NC(C)c2ccccc2)c(=O)[nH]c1=O (stereo not drawn)
 : 1.4%	x	i
> COc1ccc(-n2c(C)nc3cc(C(=O)N4CCC5(CC4)OCCO5)ccc32)cc1
 : -0.9%	-0.57	i
> C=CCn1c(O)c(C(CC)=NCc2cc(OC)cc(OC)c2)c(=O)[nH]c1=O
 : -10.4%	0.06	i
> COc1ccc(OC)c(-n2c(O)c(C=NCc3ccc4c(c3)OCO4)c(=O)[nH]c2=O)c1
 : -5.6%	-0.41	i
> O=C1NC(=O)C2(Cc3ccccc3N3CCCC32)C(=O)N1Cc1ccccc1 (stereo not drawn)
 : 1.7%	-1.08	i
> NCCCP(=O)(O)CCc1ccccc1
 : 1.8%	0.93	i
> c1ccc(CNCCc2ccc3c(c2)OCO3)nc1
 : -1.8%	x	i
> CN1CCN(Cc2ccc(Br)s2)CC1
 : -3.2%	x	i
> Cc1ccc(CN2CCN(C)CC2)c(C)c1
 : 0.1%	-0.98	i
> Cc1nc2cc(F)ccc2n1C1CCN(Cc2nnnn2CCc2ccccc2)CC1
 : -3.7%	0.04	i
> CCOC(=O)c1cc2c(cn1)[nH]c1ccccc12
 : 0.1%	0.52	i
> CN(C)C(=O)Oc1cccc(NC(=O)N2CCOCC2)c1
 : 1.3%	x	i
> Cc1cccc(-c2nc3ccccc3c(=O)n2-n2cccc2)c1
 : 1.8%	-0.66	i
> CC(=O)c1c(C)[nH]c(C(=O)N2CCC3(CC2)OCCO3)c1C
 : 2.6%	-1.62	i
> CCOc1ccc(-n2c(O)c(C=NCCCn3ccnc3)c(=O)[nH]c2=O)cc1
 : 4.4%	x	i
> CCOC(=O)CCN=Cc1c(O)n(-c2ccc(Br)cc2)c(=O)[nH]c1=O
 : -4.6%	-0.21	i

2 entries drawn at random from those above:
Results follow in this order: Hsc70	WNV protease inh	MT1-MMP promoter
> CCOC(=O)CCN=Cc1c(O)n(-c2ccc(Br)cc2)c(=O)[nH]c1=O
 : -4.6%	-0.21	i
> CC(=O)c1c(C)[nH]c(C(=O)N2CCC3(CC2)OCCO3)c1C
 : 2.6%	-1.62	i
